Screening data deposited in PubChem BioAssay by several laboratories.
CSC inhib: blocks cancer stem cells; cancer stem cell-like cells viability, luminescence; inhibition, % at 7.5 µM; actives 1.1% (n = 300,000);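 active means mean at 75% or more and at least half the replicates too; inconclusive means mean and replicates disagree; tested in HMLE shEcad cells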;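 further: 0% = median of negative and 100% = median of positive control wells; the first replicate is given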
PABP FP inh: blocks human PABP binding to poly(A) RNA; P11940; AID 2014; fluorescence polarization; inhibition, % at 35 µM; actives 1% (n = 290,000);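 active means 50% or more with normal probe brightness, or confirmed in later tests; inconclusive means above 50% with abnormal brightness, or retests that disagree; inactive means below 50% or failed in later tests; about a fifth of its hits are not listed in these tables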;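 further: calls also rest on retests at 20 µM and on dose response follow-up; controls were probe without protein and protein plus probe with vehicle; some compounds called inactive have numbers as strong as hits; many hits fall short of the cut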
Yeast UUG start: yeast start codon fidelity modulation; S. cerevisiae UUG-firefly luciferase reporter, luminescence/redox ratio; activity score, % at 18.7 µM; actives 0.13% (n = 350,000); AID 602363;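 active means replicate mean at a twofold rise or more, about +100% in these data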;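 further: firefly luciferase made from a UUG start codon reports start codon fidelity; reporter light over untreated wells divided by growth signal over untreated wells; some hits fall short of that in this replicate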
MT1-MMP act inh: MT1-MMP (human) activation inhibition. HT1080 RFP-PRO-GFP cells, GFP/RFP ratio fluorescence, overnight; percent of plate control window, DMSO zero. AID 651647. GFP/RFP ratio change, % at 20 µM. actives 0.061% (n = 360,000);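 active means GFP/RFP ratio change of at least 30% with cell ATP level not reduced by more than half and red fluorescence within 50% of control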; further: strong numbers were not always called active
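Material: RFP-PRO-GFP reporter HT1080 cells. Dosing: single-point 20 µM compound, 1% DMSO. Controls: DMSO and RFP-L50D-GFP cell wells. Timing: cells overnight before dosing, compound overnight, 37 °C, 5% CO2. Measure: GFP/RFP fluorescence ratio.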
eIF4H inh: inhibitors of RNA binding by human eIF4H; AID 2012; inhibition, % at 35 µM; actives 0.94% (n = 290,000); eIF4H fluorescence polarization binding assay;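 active means 50% or more with normal probe brightness, or confirmed in later tests; inconclusive means above 50% with abnormal brightness, or retests that disagree; inactive means below 50% or failed in later tests; about a fifth of its hits are not listed in these tables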;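 further: calls also rest on retests at 20 µM and on dose response follow-up; 0% = protein and probe with vehicle and 100% = probe without protein; strong numbers were not always called active; many hits fall short of the cut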
HIV Env fusion: inhibitors of HIV Env-mediated cell fusion; HeLa-JRFL Env/CEM21 cell fusion, luciferase; inhibition, % at 12.3 µM; actives 1.1% (n = 360,000); AID 651610;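 active means mean replicate inhibition score of at least 50 and every replicate individually at or above 50; inconclusive means only one of the two criteria met; inactive means mean below 50 and not all replicates reaching 50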;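 further: 0% = plate neutral controls and 100% = maraviroc near 300 nM; one replicate is shown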
Rce1 inhib: inhibitors of yeast Ras-converting enzyme; actives 0.27% (n = 290,000); calls only; yeast membranes, quenched prenylated peptide cleavage fluorescence; Q03530;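 active means fall in fluorescence gain of 50% or more versus controls, with final raw signal at or below 3038400; inconclusive means same 50% fall but final raw signal above 3038400; inactive means fall in fluorescence gain under 50%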;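 further: plate controls were neutral control wells for no effect and wells lacking membranes for full effect; tested at 10 µM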
Target sequence (Q03530 whole entry, looked up): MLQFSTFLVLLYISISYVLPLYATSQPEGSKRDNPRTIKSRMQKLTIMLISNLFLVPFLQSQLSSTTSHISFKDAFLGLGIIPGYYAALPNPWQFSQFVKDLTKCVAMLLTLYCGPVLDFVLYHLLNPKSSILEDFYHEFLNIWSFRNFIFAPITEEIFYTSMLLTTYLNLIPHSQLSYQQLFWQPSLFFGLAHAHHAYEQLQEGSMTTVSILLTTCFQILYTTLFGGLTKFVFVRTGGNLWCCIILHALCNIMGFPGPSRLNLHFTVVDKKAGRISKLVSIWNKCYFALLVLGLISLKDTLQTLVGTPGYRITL
eIF4H inh retest: recorded beside eIF4H inh, whose call it bears; inhibition, %; compound at 20 µM; confirmation average;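 mean of two retest wells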
PABP FP inh retest: further read-out of PABP FP inh, marked with its call; inhibition, %; compound at 20 µM; confirmation repeats;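 mean of two retest wells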
MT1-MMP act inh RFP: further read-out of MT1-MMP act inh, marked with its call; RFP signal change, %; measured here: RFP expression control read;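 0 = vehicle wells; hits needed this value within 50% of zero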
* marks the source's active call; other numbers are inactive results; i = inactive; ? = inconclusive; nt = no result given.

SMILES	CSC inhib	PABP FP inh	Yeast UUG start	MT1-MMP act inh	MT1-MMP act inh RFP	eIF4H inh	HIV Env fusion	Rce1 inhib	others
O=C(/C=C/c1ccc([N+](=O)[O-])cc1)OCC(=O)N1CCCC1	6	nt	6	3	-1	nt	-65	nt
CC(C(=O)O)n1c2ccccc2c2cnn(C)c(=O)c21 (centres undefined)	5	26	-9	5	-1	6	1	i
CC1(C)NC(=O)N(CCOCCOc2c(Cl)cc(Cl)cc2Cl)C1=O	nt	3	-8	1	-6	3	-32	i
CCOC(=O)C1CCN(C(c2cc(OC)c(OC)c(OC)c2)c2sc3nc(C)nn3c2O)CC1 (centres undefined)	2	0	-28	-5	2	-4	nt	i
COc1ccc(N2C(=O)c3cc4ccccc4cc3C2=O)cc1	0	-2	-9	2	5	-7	16	i
COc1ccc(OC)c(/C=N\NC(=O)c2cc3c(ccc4ccccc43)o2)c1	-5	5	-2	-4	0	-8	9	i
O=C(Nc1ccnn1C1CCN(C(=O)c2ccc(F)cc2)CC1)C1CCOC1 (centres undefined)	-1	-8	-11	-1	4	-5	-4	i
Cc1nc2ccccc2n1S(=O)(=O)c1ccc(Br)cc1	-4	5	nt	4	-1	-7	5	i
c1ccc2n[nH]nc2c1	nt	nt	-15	1	4	nt	-6	nt
CN(C)S(=O)(=O)c1ccc(C(=O)OCCc2ccccc2)cc1	-13	4	-3	3	3	7	-1	i
COc1ccccc1/C=C1\SC(=S)N(Nc2nc(C)cc(C)n2)C1=O	15	10	-4	6	3	20	-40	i
CCOC(=O)c1c[nH]n(-c2ccccc2)c1=O	-11	12	nt	3	5	10	-1	i
Cc1c(Cl)cccc1NC(=O)CCS(=O)(=O)c1cccc2nonc12	-8	-1	-18	0	1	-12	-4	nt
O=C1CCC(=O)N1CNc1ccccn1	-4	-4	-15	4	3	3	nt	i
COc1ccccc1N1CCN(CC(=O)N(CC(C)C)c2c(N)n(CC(C)C)c(=O)[nH]c2=O)CC1	5	11	-14	6	1	-7	-3	i
CCN(C(=O)COC(=O)Cc1c[nH]c2ccccc12)C1CCS(=O)(=O)C1 (centres undefined)	-17	11	-9	-6	4	-7	-41	i
Cn1c(-c2ccsc2)c(-c2cccs2)c2cc(-c3cccc4[nH]ccc34)ccc21	15	nt	-20	-7	-6	nt	14	nt
COc1ccccc1N1CCN(C(=O)CCS(=O)(=O)c2ccc3c(c2)oc(=O)n3C)CC1	-11	13	-11	0	11	-2	15	i
COc1ccc(-c2cc(C(=O)N3CCN(Cc4ccccc4)CC3)no2)cc1OC	-3	-6	-15	-2	5	-5	11	i
O=C(NCc1ccccc1)c1c[nH]c2ccc(S(=O)(=O)Nc3ccc4c(c3)OCCO4)cc2c1=O	15	-4	-5	-2	-4	2	nt	i
CCOc1ccccc1-c1noc(CCCC(=O)NC2CCCCC2)n1	nt	-9	-17	-4	-3	9	17	i
CCC(C)CCN1C(Nc2ccccc2)=NC[C@@H]1Cc1ccccc1 (some centres undefined)	8	-2	-19	1	1	-2	-19	i
CC1(C(=O)NS(=O)(=O)c2cccc(C#N)c2)CCN1C(=O)CC1CC1 (centres undefined)	nt	nt	-11	1	5	nt	13	nt
CCOC(=O)c1c(-c2ccc(F)cc2)csc1NC(=O)C1CC=CCC1C(=O)O (centres undefined)	25	?	nt	1	-1	?	16	i
Cc1ccc(NC(=O)COC(=O)c2ccc(C)c(S(=O)(=O)N3CCOCC3)c2)cc1	nt	nt	3	0	1	nt	-4	nt
O=C(Nc1nncs1)c1ccccc1NS(=O)(=O)c1cccs1	-7	12	-21	0	2	1	nt	i
CC(=O)OCCn1c(=O)c2cc3c(=O)n(CCOC(C)=O)c(=O)c3cc2c1=O	-4	7	26	-5	-2	-2	nt	i
Cc1ccc(C(=O)O)cc1NC(=O)CSc1ncnc2sc3c(c12)CCC3	0	8	nt	-4	1	9	9	i
O=C(NCc1ccc(Cl)cc1)C(=O)NCC1OCCN1S(=O)(=O)c1cc(F)ccc1F (centres undefined)	-12	-1	-1	2	-5	-1	-2	i
CCOc1ccccc1Nc1nnc(SCC(=O)Nc2cccc(S(=O)(=O)NC3=NCCCCC3)c2)s1	-13	6	-4	5	-12	10	-2	i
COc1cccc(-c2ccc(C#N)c(SCC(=O)NCc3ccco3)n2)c1	-11	-1	3	3	-2	-12	21	i
CCN(CC)CCC(=O)N1c2ccccc2CCc2ccc(NC(=O)OC)cc21	10	4	-2	-1	0	4	-19	i
CC(C)c1nc(N2CCN(C(=O)c3ccccc3)CC2)c(C#N)c2c1COC(C)(C)C2	nt	2	25	-16	-24	0	-12	i
NS(=O)(=O)c1ccc(NC(=S)Nc2ccn(Cc3cccc4ccccc34)n2)cc1	14	17	-23	4	-18	3	29	i
CCOc1ccc(-n2ccc(=O)c(C(=O)O)n2)cc1	-13	7	-1	2	4	-6	5	i
C=CCn1c(CCNC(=O)c2ccco2)nc2ccccc21	nt	4	nt	1	-1	3	1	i
CN(CC(=O)Nc1ccc(Cl)cc1)C(=O)CNC(=O)c1ccc2c(c1)OCO2	-14	nt	4	-6	-4	nt	-33	i
C/C(=N\NC(=O)COc1ccc(C(C)(C)C)cc1)c1cc2ccccc2o1	9	-10	-41	0	-1	0	-122	i
O=C1c2ccccc2C(=O)N1CC(O)COCc1ccccc1 (centres undefined)	nt	0	-12	15	12	-13	-5	i
COc1ccccc1N(Cc1ccccc1)S(=O)(=O)c1cccc(C(=O)Nc2cccc(C)n2)c1	-9	12	-5	-11	-13	2	45	i

Reprinted at random: 7 entries already listed, in no set order.
SMILES	CSC inhib	PABP FP inh	Yeast UUG start	MT1-MMP act inh	MT1-MMP act inh RFP	eIF4H inh	HIV Env fusion	Rce1 inhib	others
CCOc1ccccc1Nc1nnc(SCC(=O)Nc2cccc(S(=O)(=O)NC3=NCCCCC3)c2)s1	-13	6	-4	5	-12	10	-2	i
CC1(C(=O)NS(=O)(=O)c2cccc(C#N)c2)CCN1C(=O)CC1CC1 (centres undefined)	nt	nt	-11	1	5	nt	13	nt
COc1ccccc1N(Cc1ccccc1)S(=O)(=O)c1cccc(C(=O)Nc2cccc(C)n2)c1	-9	12	-5	-11	-13	2	45	i
Cc1ccc(NC(=O)COC(=O)c2ccc(C)c(S(=O)(=O)N3CCOCC3)c2)cc1	nt	nt	3	0	1	nt	-4	nt
CCN(CC)CCC(=O)N1c2ccccc2CCc2ccc(NC(=O)OC)cc21	10	4	-2	-1	0	4	-19	i
CCOc1ccc(-n2ccc(=O)c(C(=O)O)n2)cc1	-13	7	-1	2	4	-6	5	i
CCOC(=O)c1c(-c2ccc(F)cc2)csc1NC(=O)C1CC=CCC1C(=O)O (centres undefined)	25	?	nt	1	-1	?	16	i

Of the compounds above, these have fluorine:
SMILES	CSC inhib	PABP FP inh	Yeast UUG start	MT1-MMP act inh	MT1-MMP act inh RFP	eIF4H inh	HIV Env fusion	Rce1 inhib	others
O=C(Nc1ccnn1C1CCN(C(=O)c2ccc(F)cc2)CC1)C1CCOC1 (centres undefined)	-1	-8	-11	-1	4	-5	-4	i
CCOC(=O)c1c(-c2ccc(F)cc2)csc1NC(=O)C1CC=CCC1C(=O)O (centres undefined)	25	?	nt	1	-1	?	16	i
O=C(NCc1ccc(Cl)cc1)C(=O)NCC1OCCN1S(=O)(=O)c1cc(F)ccc1F (centres undefined)	-12	-1	-1	2	-5	-1	-2	i

Back to the main list with the 2 entries that preceded the break.
SMILES	CSC inhib	PABP FP inh	Yeast UUG start	MT1-MMP act inh	MT1-MMP act inh RFP	eIF4H inh	HIV Env fusion	Rce1 inhib	others
O=C1c2ccccc2C(=O)N1CC(O)COCc1ccccc1 (centres undefined)	nt	0	-12	15	12	-13	-5	i
COc1ccccc1N(Cc1ccccc1)S(=O)(=O)c1cccc(C(=O)Nc2cccc(C)n2)c1	-9	12	-5	-11	-13	2	45	i
O=C(Nc1ccccc1)c1ccc(Br)c(S(=O)(=O)Nc2cccnc2)c1	22	-7	nt	5	3	-3	10	i
CCOC(=O)COc1ccc2c(C#N)c3ccccn3c2c1	nt	-1	nt	-3	4	83	-1	i	eIF4H inh retest=4;PABP FP inh retest=-2
CC1(C)Cc2cccc(OCC(=O)Nc3nccs3)c2O1	0	-2	-2	5	2	-9	-91	i
CCOC(=O)CC(NC(=O)c1cccc2c1C(=O)N(Cc1cccnc1)C2)c1ccc(OC(C)C)cc1 (centres undefined)	10	-7	nt	0	-2	4	10	i
O=C(c1cccs1)N1CCN(Cc2nc3ccccc3c(=O)[nH]2)CC1	-8	-6	1	0	4	-4	nt	i
CCOc1ccc(N/C=C/C(=O)c2cc(OC)c(OC)c(OC)c2)cc1	28	-2	-8	2	-1	-13	6	i
O=C(Cc1ccc(Cl)cc1)N/N=C/c1ccccc1	11	-7	nt	1	2	-4	-17	i
FC(F)(F)c1cccc(Cc2noc(CN3CCCC3)n2)c1	-7	0	nt	-3	1	0	15	i
O=C1/C(=C\c2ccco2)CCC/C1=C\c1ccco1	-8	3	-27	-12	9	86	-34	i	eIF4H inh retest=-12;PABP FP inh retest=-1
COC(=O)c1ccc(C2C(C(=O)c3cc4ccccc4o3)=C(O)C(=O)N2CCN2CCOCC2)cc1 (centres undefined)	-12	-4	-14	-1	0	45	0	i
CCN(CC)CCN1C(=O)c2oc3ccccc3c(=O)c2C1c1ccc(F)cc1 (centres undefined)	-8	-3	-5	0	3	-5	-20	i
Cn1cccc1C(=O)NNC(=O)COc1ccccc1F	-7	2	-24	3	5	-3	-4	i
CCC(=O)NCc1ccc(-c2nc3ncccc3o2)cc1	-5	-10	6	-2	3	-11	3	i
COc1cccc(-c2ccc(NC(=O)C3CCCN(Cc4cc(C)[nH]n4)C3)cc2)c1 (centres undefined)	-10	-10	-5	-2	-3	-1	16	i
COc1ccc(NC(=O)c2cc(C3CCCCN3C(=O)c3ccc(Cl)cc3)on2)c(C)c1 (centres undefined)	nt	nt	-9	0	-6	nt	6	nt
C=CCN1C(=O)/C(=C\c2ccco2)C(C(=O)OC)=C1C	15	43	nt	-2	5	27	8	i
COc1ccc(C2CC(c3ccccc3Br)=NN2c2ccc(S(N)(=O)=O)cc2)cc1 (centres undefined)	nt	nt	-10	-5	-2	nt	12	nt
Cc1cccc(OCC(=O)NNC(=O)c2cccs2)c1	3	6	nt	3	3	-5	-9	i
CCOc1ccc(NC(=O)Nc2cc(OCC(F)(F)F)cc(OCC(F)(F)F)c2)cc1	21	5	nt	-8	-16	-12	?	i
Cc1cccc(CC(C)NC(=O)c2oc3c(F)cccc3c2C)n1 (centres undefined)	6	7	1	0	-3	19	-56	i
COc1cc(/C=C/C(=O)OCC(=O)Nc2ccc(C)cc2[N+](=O)[O-])ccc1O	3	8	nt	5	1	9	-7	i
COCCCNc1nc2c(c(=O)n(Cc3cccc(Br)c3)c(=O)n2C)n1C	-10	19	nt	3	-2	6	23	i
COc1ccc(C(=O)NC(C)CCn2cccn2)cc1OC1CCN(C(C)C)CC1 (centres undefined)	-9	10	1	-2	1	13	7	i
CC(=O)c1cccc(NC(=O)N2CCCC2C(=O)Nc2ccc3c(c2)OCO3)c1 (centres undefined)	8	9	nt	4	6	-1	-5	i
CCOC(=O)C(C)NC(=O)CCc1nnc2ccc(N3CCCCC3)nn12 (centres undefined)	-3	4	-3	0	5	11	-67	i
O=C(CSc1ccccc1)Nc1ccc2c(c1)OCCO2	-13	4	-22	1	7	-9	-81	nt
O=C(O)c1ccc2c(c1)CCCN2	-17	63*	-15	-3	2	52*	12	i

Outcome played no part in choosing rows, and some 3% of all compounds hit somewhere here.
